# Compound activity as filed in PubChem.
# GIV Gai3 FP: inhibitors of GIV peptide binding to Galpha-i3, primary screen, biochemical, fluorescence polarization, FITC-GIV GBA peptide, rat Galphai3; 90 min; hits give low values; scaled: aluminum fluoride 0%, vehicle 100%; hit rate 0.42% among 210,000; percent of control (FP), % (concentration not given with the values); Guanine nucleotide-binding protein G(i) subunit alpha-3 (Rattus norvegicus), P08753;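 active = replicate mean at 85% of control or lower, very high polarization wells dropped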;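 also: wells of about 15 µL received 100 nL stock; the first replicate is given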
# Target sequence (P08753 whole entry, looked up): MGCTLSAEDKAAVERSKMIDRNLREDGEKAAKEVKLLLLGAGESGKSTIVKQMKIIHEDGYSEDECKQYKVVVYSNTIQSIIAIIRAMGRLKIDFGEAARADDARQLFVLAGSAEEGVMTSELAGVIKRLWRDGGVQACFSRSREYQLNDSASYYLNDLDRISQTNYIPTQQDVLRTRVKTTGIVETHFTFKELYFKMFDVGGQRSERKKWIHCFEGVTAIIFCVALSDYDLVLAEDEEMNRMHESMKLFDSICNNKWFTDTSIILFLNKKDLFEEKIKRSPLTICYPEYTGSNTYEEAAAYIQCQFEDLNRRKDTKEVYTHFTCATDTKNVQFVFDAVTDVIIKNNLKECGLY
# HCMV NEC inh: inhibitors of HCMV UL50-UL53 interaction, biochemical, HTRF; HCMV UL50-UL53 nuclear egress complex (human cytomegalovirus); AID 1918969, 2023; normalized percent inhibition; inhibition, % (test concentration not listed); hit rate 0.15% among 190,000;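 active = both replicates at 50% or more, plus weaker picks with an unusually low signal ratio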;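 also: stock transfer was 100 nL into about 20 µL; 0% = negative control wells and 100% = wells with untagged competitor protein; inactives centre near -12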
# Sa growth 42C: S. aureus growth inhibition at 42 and 30 °C, primary screen, LtaS inhibitor project, RN4220, two temperatures | OD600, 20 h, 42 °C; hits give low values | relative growth, % (no concentration beside the values) | hit rate 0.53% among 170,000;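 active = growth at 42 °C up to 50% and 20 or more points under that at 30 °C, or under 10% at both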;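 also: 300 nL library stock went into each well; scaled to the means of positive and negative controls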
# Sa growth 42C second temp: further read-out of Sa growth 42C, marked with its call; relative growth, %; measured here: growth at 30 °C;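 optical density after 20 h as mean of two plates; 100% = untreated growth and lower means inhibition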
# * = called active by the depositor; nt = no result given; & = joins results of further samples.
# Start of the data: the first 6 compounds, to show the layout:
SMILES,GIV Gai3 FP,HCMV NEC inh,Sa growth 42C,Sa growth 42C second temp
CCOC(=O)C1CCCN(c2nc3c(S(=O)(=O)c4ccc(CC)cc4)nnn3c3ccsc23)C1 (stereo not given),95,nt,112,84
O=c1c(-c2ccc3c(c2)OCCO3)coc2cc(O)cc(O)c12,106,0,57,23
CCN(CC)c1ccc(CN(C(=O)c2cc(=O)c3ccccc3o2)C2CCS(=O)(=O)C2)cc1 (stereo not given),103,-21,98,80
CCOc1ccc2nc(Nc3ncc4c(n3)CCCC4=O)nc(C)c2c1,108,-12&-10,91,78
COc1cc(-c2nnc(SCC(=O)NC(=O)c3ccc(C(C)(C)C)cc3)o2)cc(OC)c1OC,nt,-1,90,92
Fc1ccc(N2CCN(C3C4CC5CC(C4)CC3C5)CC2)cc1 (stereo not given),105,-9,96,104

# The list itself, repeating the preview:
SMILES,GIV Gai3 FP,HCMV NEC inh,Sa growth 42C,Sa growth 42C second temp
CCOC(=O)C1CCCN(c2nc3c(S(=O)(=O)c4ccc(CC)cc4)nnn3c3ccsc23)C1 (stereo not given),95,nt,112,84
O=c1c(-c2ccc3c(c2)OCCO3)coc2cc(O)cc(O)c12,106,0,57,23
CCN(CC)c1ccc(CN(C(=O)c2cc(=O)c3ccccc3o2)C2CCS(=O)(=O)C2)cc1 (stereo not given),103,-21,98,80
CCOc1ccc2nc(Nc3ncc4c(n3)CCCC4=O)nc(C)c2c1,108,-12&-10,91,78
COc1cc(-c2nnc(SCC(=O)NC(=O)c3ccc(C(C)(C)C)cc3)o2)cc(OC)c1OC,nt,-1,90,92
Fc1ccc(N2CCN(C3C4CC5CC(C4)CC3C5)CC2)cc1 (stereo not given),105,-9,96,104
O=C(CCSc1nc(-c2ccco2)cc(C(F)(F)F)n1)Nc1cccc(O)c1,107,0,90,83
O=S(=O)(c1ccc(Nc2nc3ccccc3n3nnnc23)cc1)N1CCOCC1,106,nt,87,88
Cc1ccc(N2CCN(C(=O)c3ccccc3)CC2)c(C)c1,104,0,85,78
COc1ccc(OC)c(S(=O)(=O)c2c(OC)ccc(OC)c2C(=O)O)c1,nt,-12,93,85

# 2 of the compounds above, bar-delimited.
Structure | GIV Gai3 FP | HCMV NEC inh | Sa growth 42C | Sa growth 42C second temp
Fc1ccc(N2CCN(C3C4CC5CC(C4)CC3C5)CC2)cc1 (stereo not given) | 105 | -9 | 96 | 104
COc1cc(-c2nnc(SCC(=O)NC(=O)c3ccc(C(C)(C)C)cc3)o2)cc(OC)c1OC | nt | -1 | 90 | 92

# More records
SMILES,GIV Gai3 FP,HCMV NEC inh,Sa growth 42C,Sa growth 42C second temp
Nc1nc2c(c(Nc3ccccc3)n1)C(=O)CC(c1ccccc1)C2 (stereo not given),102,nt,120,99
Cc1c(C(=O)NC(=S)Nc2ccc(N3CCCCC3)c(Cl)c2)oc2ccccc12,99,-33,86,89
CC(C)CNC(=O)c1ccc(CN2CCOCC2)cc1,105,-17,110,87
CCCCN(CC)CCNC(=O)c1cc2c(-c3ccc(Cl)cc3)nn(C)c2s1,99,3,98,73
CC(=O)N1c2ccccc2NC2=C(C(=O)CCC2)C1c1ccc(Cl)cc1 (stereo not given),101,nt,81,81
CN1C(=O)c2cc(C(=O)N3CCCC3)nn2CC1(C)C(=O)NC1CCCCC1 (stereo not given),103,-10,nt,nt
O=C(Cc1ccc(NC(=O)N2CCCCc3ccccc32)cc1)Nc1ccccc1Br,99,nt,132,98
COc1ccc(C(=O)Oc2ccc3c(C)cc(=O)oc3c2)cc1OC,102,-8,95,87
CCc1nnc(N2C(=O)c3ccccc3C2(O)c2ccc(Cl)cc2)s1 (stereo not given),105,-3,92,90
Cc1ccc(C)c(N2CCN(C(=O)c3cn(CC(C)C)c(=O)c4c3c3ccccc3n4C)CC2)c1,105,-6,106,89
CCOc1ccc(C2N3CC4(C(C)C)CN2CC(C(C)C)(C3)C4=O)cc1OC (stereo not given),100,-38,97,85
CCOC(=O)c1cc(-c2nnc(-c3ccc(C)cc3)o2)c(C)nc1C,nt,-8,111,90
Cc1cc(C)n(CCc2nc3c4ccccc4nc(NCCC(C)C)n3n2)n1,100,-7,91,87
CCN(C(=O)CSc1nc2ccccc2c2nc(CCn3c(C)nc4ccccc43)nn12)c1cccc(C)c1,106,nt,98,89
O=C(c1ccc(F)cc1)N1CCCCC(Sc2ncnc3sc4c(c23)CCC4)C1=O (stereo not given),98,nt,104,90
CCCc1cc(C(=O)N2CCCCCCC2)cs1,106,-21,140,104
CC(C)(C)c1csc(N)c1C#N,101,-13,95,90
COc1ccc(-n2c(-c3ccccc3F)nc3c(cnn3-c3ccc(C)cc3)c2=O)cc1,100,-15,96,81
Nc1ccc(Br)cc1C(O)c1ccccc1Cl (stereo not given),nt,-19,84,100
O=C(/C=C/c1ccco1)N(Cc1ccco1)Cc1cccs1,nt,-31,67,84
CCCCOC(=O)c1ccc(NC(=O)CN2C(=O)S/C(=C\c3ccccc3)C2=O)cc1,102,-2,nt,nt
Cc1ccc(NC(=O)c2nc3ccccc3n(C)c2=O)cc1,103,-190,nt,nt
COc1ccc2oc(-c3ccc(C)c(NC(=O)c4sc5ccccc5c4Cl)c3)nc2c1,106,-29,106,89
COc1ccc(OCCCCn2c(-c3ccc(Cl)cc3)nc3ccccc3c2=O)cc1,103,-20,97,85
COc1ccc(NC(=O)c2sc3nc4c(c(-c5ccc(OC)cc5)c3c2N)C(=O)CC(C)(C)C4)cc1,70*,-40,100,91
Cc1ccc(C2=NC(=O)/C(=C/c3cc(O)c(O)c(Br)c3)S2)cc1,109,-28,115,82
C=CCN1C(=O)NC(=O)/C(=C/c2ccc(OCc3ccc(Cl)cc3)c(OC)c2)C1=O,109,-27,nt,nt
O=C(CCc1ccco1)Nc1ccc(-c2nnc3n2CCCCC3)cc1,nt,-26,72,97
OCC#Cc1ccc(-c2cccnc2)s1,116,-35,95,79
CCN1CCN(c2nc3ncn(CC(=O)NCc4ccc5c(c4)OCO5)c(=O)c3s2)CC1,106,-15,nt,nt
CCc1cccc(NC(=O)C(Cc2ccccc2)NS(=O)(=O)c2ccc3c(c2)oc(=O)n3C)c1 (stereo not given),104,21,95,95
COC(=O)C(Cc1c[nH]c2ccccc12)NS(C)(=O)=O (stereo not given),nt,-2,89,93
COc1ccc(CNc2nc3nc(C)cc(C)n3n2)cc1,104,-7,nt,nt
CC1=C(C(=O)Nc2ccccc2)C(C(C)C)n2nc(SCc3ccccc3C)nc2N1 (stereo not given),108,-5,119,91
Cc1nc(-c2ccc3c(c2)CCN3C(=O)Cc2ccc(Cl)cc2)no1,108,-13,nt,nt
CC(=O)Nc1ccc(OC(=O)N2CCCC2)cc1,97,0,94,87
CN(C)/N=C/c1ccc(P(N2CCOCC2)N2CCOCC2)o1,nt,-52,98,80
O=c1ccc(-c2ccc(S(=O)(=O)NCCN3CCCC3)s2)n[nH]1,102,-100,101,93
CC(C)(C)/C=N/NC(=O)c1nc(-c2ccc(C(C)(C)C)cc2)no1,106,-11,89,66
O=C1NC2(CCN(C(=O)c3ccc(Cl)cc3)CC2)N=C1c1ccccc1,100,-14,84,82
COC(=O)Cc1c(C)c2ccc3c(c2oc1=O)CN(Cc1ccc(Cl)cc1)CO3,99,-40,102,87
Cc1cccc(OCC(=O)NC(Cc2c[nH]c3ccccc23)C(=O)O)c1 (stereo not given),nt,-30,111,80
COc1ccc(C(=O)COC(=O)c2cccc(S(N)(=O)=O)c2)cc1,nt,6,94,87
CCOC(=O)C1=C(C)OC(N)=C(C#N)C1c1ccc2c(c1)CCO2 (stereo not given),109,-32,92,78
O=C(Nc1ccc(Cn2cnc(-c3nc(-c4ccc(Cl)cc4)no3)c2)cc1)c1ccccc1Cl,109,-2,nt,nt
Cc1cc(C(=O)COC(=O)[C@@H]2CCCN2C(=O)c2cccs2)c(C)n1-c1ccc2c(c1)OCCO2,nt,-20,100,92
CC1CCCC(NC(=O)COC(=O)c2cccc(Br)c2)C1C (stereo not given),nt,-34,131,81
O=C(O)C1CCCN(Cc2ccco2)C1 (stereo not given),103,-12,95,85
Cc1ccc(CNc2nc3ccccc3s2)s1,102,2,108,110
CCN(CC)C(=O)CSc1nc2cccnc2n1C,99,-30,107,97

# Record cards (already shown):
# Record of CCN(CC)C(=O)CSc1nc2cccnc2n1C = GIV Gai3 FP = 99; HCMV NEC inh = -30; Sa growth 42C = 107; Sa growth 42C second temp = 97
# Record of Cc1cccc(OCC(=O)NC(Cc2c[nH]c3ccccc23)C(=O)O)c1 (stereo not given) = GIV Gai3 FP = nt; HCMV NEC inh = -30; Sa growth 42C = 111; Sa growth 42C second temp = 80

# (next part)
SMILES,GIV Gai3 FP,HCMV NEC inh,Sa growth 42C,Sa growth 42C second temp
CCN(CC)C(=O)Cn1cc(SCC(=O)Nc2cc(OC)ccc2OC)c2ccccc21,103,nt,93,94
CCN1CCN(C(=O)C2CCCN(c3nn4cc(-c5ccc(OC)cc5)nc4s3)C2)CC1 (stereo not given),103,nt,91,86
O=C(CN1C(=O)C2(SCC(=O)N2c2ccc(Cl)cc2)c2ccccc21)NCCc1ccccc1 (stereo not given),104,nt,108,88
CC(C)NC(=O)N1CCCC(c2cccc(C(=O)N3CCC(N4CCCCC4)CC3)c2)C1 (stereo not given),111,-9,nt,nt
CCn1c(C)cc(O)c(C(c2cccc(OC)c2)N2CCN(c3ccccn3)CC2)c1=O (stereo not given),102,-34,88,85
CCn1nnc2c(Nc3cccc(C)c3)ncnc21,104,-27,78,79
OC1(C(F)(F)F)CC(c2ccc(F)cc2)=NO1 (stereo not given),97,nt,95,81
Cc1sc2ncnc(NCc3ccc4c(c3)OCO4)c2c1C,105,-4&-22,nt,nt
COc1ccc(CNC(=O)C(=O)NCC(c2cccs2)S(=O)(=O)c2ccc(C)cc2)cc1 (stereo not given),97,nt,112,83
CCn1c(C)ccc(-c2noc(CCC(=O)Nc3ccccc3OC)n2)c1=O,101,-21,nt,nt
Cc1ccc[n+](Cc2cnc(C)nc2N)c1,103,-11,96,67
O=C(c1ccc(Cl)cc1)N1CCN(c2nc3ccccc3nc2C(F)(F)F)CC1,106,0,nt,nt
O=C(Cn1c(-c2cccs2)cc2ccccc21)NCCCN1CCN(c2ccccc2F)CC1,107,nt,132,90
COc1cc(NC(=O)c2ccc(-c3nc(COc4ccccc4)c(C)o3)cc2)cc(OC)c1,105,nt,139,87
O=C(NCc1ccccc1)C1CCC(CNS(=O)(=O)c2ccc(Br)s2)CC1 (stereo not given),102,-9,111,92
CC(C)(C)c1ccc(-c2nn3cnnc3s2)cc1,105,-16,86,89
CC(C)Cc1nnc(NS(=O)(=O)c2ccccc2)s1,102,-5,88,57
O=S(=O)(c1ccc2nc(NCc3ccccc3Cl)ccc2c1)N1CCCCC1,107,nt,107,94
CN(C)C(CNC(=O)c1cncc(Br)c1)c1cccs1 (stereo not given),nt,-19,93,90
Cc1ccccc1N=C1Nc2ccc3ccccc3c2C1=O,104,nt,115,72

# Six of these compounds, reformatted:
# Order of results – GIV Gai3 FP, HCMV NEC inh, Sa growth 42C, Sa growth 42C second temp
O=C(Nc1ccc(Cn2cnc(-c3nc(-c4ccc(Cl)cc4)no3)c2)cc1)c1ccccc1Cl
  109, -2, nt, nt
Cc1cc(C(=O)COC(=O)[C@@H]2CCCN2C(=O)c2cccs2)c(C)n1-c1ccc2c(c1)OCCO2
  nt, -20, 100, 92
CC1CCCC(NC(=O)COC(=O)c2cccc(Br)c2)C1C (stereo not given)
  nt, -34, 131, 81
O=C(O)C1CCCN(Cc2ccco2)C1 (stereo not given)
  103, -12, 95, 85
Cc1ccc(CNc2nc3ccccc3s2)s1
  102, 2, 108, 110
CCN(CC)C(=O)CSc1nc2cccnc2n1C
  99, -30, 107, 97

# Continuation.
SMILES,GIV Gai3 FP,HCMV NEC inh,Sa growth 42C,Sa growth 42C second temp
COc1ccc(N(Cc2coc(-c3ccccc3)n2)S(=O)(=O)c2ccccc2)cc1,nt,-25,93,85
Clc1ccc(-c2csc(-c3ccno3)n2)cc1,96,-6,109,91
CC(C)C(NS(=O)(=O)c1ccc2c(c1)OCCO2)C(=O)OCN1C(=O)c2ccccc2C1=O (stereo not given),nt,-28,104,82
COc1ccc(-c2cc(C(F)(F)F)n3ncc(C(=O)NC(C)(C)C)c3n2)cc1,nt,-1,88,89
Cc1cccc2cc(CC3CC(c4ccc(Br)cc4)=NN3C(=O)CCC(=O)O)c(=O)[nH]c12 (stereo not given),104,-18,nt,nt
Cc1ccc2nc3n(c(=O)c2c1)CCCc1nn(-c2nc4ccccc4s2)c(N)c1-3,nt,-9,102,97
CCOc1ccc(-c2cccc(NS(=O)(=O)c3ccc(Cl)s3)c2)nn1,104,nt,107,83
Cc1nn(Cc2ccc(C(=O)Nc3cc(Cl)cc(Cl)c3)o2)c(C)c1Br,102,-30,92,89
CC(Sc1ccc(Cl)cc1)C(=O)NN=C1CCN(C)CC1 (stereo not given),105,-36,86,90
COc1cc([N+](=O)[O-])ccc1NC(=O)c1nc2ccccc2n(C)c1=O,106,-19,106,87
